# gsp antagonist: qHTS for Antagonists of gsp, the Etiologic Mutation Responsible for Fibrous Dysplasia/McCune-Albright Syndrome: qHTS. Potency, µM (top dose mostly 76.9 µM), inactives show at the highest dose activity change, negative = inhibition, usual class: inhibitors. gsp-mutant cells, cAMP HTRF, 30 min; control for the full effect not named in the record. hit rate 0.4% among 340,000; active = falling curve of any shape with a large fitted effect; inconclusive = falling curve, mostly with a smaller effect; inactive = flat or rising curve; cell line not stated here;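 further: intracellular cAMP measured with PDE inhibitor Ro 20-1724 present during compound exposure; potency means the concentration at half of the fitted maximal effect; on the % scale 0 is the no-effect control and ±100 the full control effect; nearly all actives have a fitted effect of over 65% in size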
#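 G418-selected cells were plated in DMEM/10% FBS for 16-24 h at 37C, then treated with compounds plus the PDE inhibitor […] (300 uM solution added) for 30 min at 37C. Intracellular cAMP was measured by HTRF after 30 min lysis at room temperature.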
# TRPV1 PAM: HTS Assay for Compounds that Act as Potentiators of the Vanilloid Receptor 1 | Transient receptor potential cation channel subfamily V member 1 (Homo sapiens), Q8NER1 | TRPV1-expressing cells, Fluo-8 calcium influx, capsaicin EC20 potentiation; host cell line not named in the record; control for the full effect not named in the record | potentiation, % at 8.33 µM | hit rate 0.02% among 320,000 | AID 540277, 2011; active means potentiation above 80%; inconclusive means 30% to 80%; inactive means below 30%; further: 0% is about no effect
# Target sequence (Q8NER1 whole entry, looked up): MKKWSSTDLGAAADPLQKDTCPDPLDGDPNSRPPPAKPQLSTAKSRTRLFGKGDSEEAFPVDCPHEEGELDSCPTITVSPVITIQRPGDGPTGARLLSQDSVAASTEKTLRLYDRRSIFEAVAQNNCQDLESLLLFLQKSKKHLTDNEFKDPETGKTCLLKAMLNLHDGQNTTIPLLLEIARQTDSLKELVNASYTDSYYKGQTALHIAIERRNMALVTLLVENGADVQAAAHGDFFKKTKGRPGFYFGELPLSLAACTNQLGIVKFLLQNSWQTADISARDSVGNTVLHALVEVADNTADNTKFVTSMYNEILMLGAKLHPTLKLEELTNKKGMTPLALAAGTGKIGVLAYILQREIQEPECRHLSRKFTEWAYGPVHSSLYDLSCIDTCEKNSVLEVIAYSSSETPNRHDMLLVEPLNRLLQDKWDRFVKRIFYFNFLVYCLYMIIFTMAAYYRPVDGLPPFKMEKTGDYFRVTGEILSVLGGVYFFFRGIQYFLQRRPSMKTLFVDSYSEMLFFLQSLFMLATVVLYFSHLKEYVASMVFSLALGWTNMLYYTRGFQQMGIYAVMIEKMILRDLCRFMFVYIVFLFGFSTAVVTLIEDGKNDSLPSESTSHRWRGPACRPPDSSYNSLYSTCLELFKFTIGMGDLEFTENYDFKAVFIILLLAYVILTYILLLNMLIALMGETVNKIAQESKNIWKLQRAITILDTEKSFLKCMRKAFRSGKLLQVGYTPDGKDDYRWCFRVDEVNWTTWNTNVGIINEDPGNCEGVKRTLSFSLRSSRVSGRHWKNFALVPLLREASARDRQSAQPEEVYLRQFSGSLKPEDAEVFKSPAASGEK
#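 TRPV1-expressing cells were cultured overnight at 35.5C and loaded with Fluo-8 calcium dye for 40 to 90 min at room temperature. After a 10 s baseline, compound was added and calcium influx was read kinetically for 3 min (ex 480/em 520 nm).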
# Menin-MLL FL inh: qHTS Assay for Inhibitors Targeting the Menin-MLL Interaction in MLL Related Leukemias: Competition With Fluorescein Labeled MLL-derived Peptide; Fluorescence polarization, fluorescein-MLL peptide displacement from menin; FP activity change, % at 61.4 µM; AID 1766, 2009; 290,000 tested, under 10 active; inconclusive = falling polarisation curve, or a change in total fluorescence; inactive = total fluorescence flat and polarisation flat or rising; no compound was filed as active; the % refers to the polarisation; negative = inhibition;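 further: % of control where 0% means no effect; inhibitors lower the polarisation; unlabelled MLL peptide was the positive control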
# ClpP mod: qHTS Assay for Activators of ClpP; Potency, µM (top dose mostly 57.5 µM), for inactives: at the top dose activity change, negative = active; AID 651965, 2013; purified B. subtilis ClpP, FRET peptide cleavage, 20 min; hit rate 1.9% among 340,000; ATP-dependent Clp protease proteolytic subunit (Bacillus subtilis (strain 168)), P80244; active = well fitted falling curve with a large enough effect; inconclusive = small, poorly fitted or top-dose-only effect; inactive = no such curve, though single readings can be large or run the other way; further: potency means the concentration at half of the fitted maximal effect; the source files actives as falling curves though it sought activators and does not explain the sign; nearly all actives have a fitted effect of over 65% in size; many hits overshoot -100%
# Target sequence (P80244 whole entry, looked up): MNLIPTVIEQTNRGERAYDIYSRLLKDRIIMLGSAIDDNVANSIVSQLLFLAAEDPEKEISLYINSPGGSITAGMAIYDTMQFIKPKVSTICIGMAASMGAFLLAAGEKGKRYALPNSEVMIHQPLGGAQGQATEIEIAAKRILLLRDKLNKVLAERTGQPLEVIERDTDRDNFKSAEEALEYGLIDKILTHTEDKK
#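 Purified B. subtilis ClpP, 10 microg/mL final in Tris/HCl pH8 with KCl, BSA, glycerol and Tween-20, cleaved an Abz/nitrotyrosine-quenched decapeptide. Fluorescence (ex 320, em 430) was read at 0 and 20 min at room temperature. Delta was normalized to 5.8 microM ADEP and DMSO/no-enzyme controls.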
# CtBP-E1A inh: qHTS Assay for Inhibitors of the CtBP/E1A Interaction. AlphaScreen GST-E1A/His-CtBP binding, 1536-well; stronger effect = lower value; control for the full effect not named in the record. activity change, % (concentration not given with the values). hit rate 0.49% among 340,000. AID 651724, 2012; in the data active means activity change below about -65%; inconclusive means about -30% to -65%; inactive means above about -30%; further: on the % scale 0 is the no-effect control and ±100 the full control effect
#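 Steps: dispense buffer (Tris pH 8.0, NaCl 300 mM, TCEP 1 mM, BSA, Tween 20); add 5X protein mix (GST-E1A, His-CtBP, 125 nM each); pin 23 nL compound; 2 h at 37 °C, dark; add 5X beads (50 ug/mL); 1 h; read.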
# Sfp inh: qHTS Assay for Inhibitors of Bacillus subtilis Sfp phosphopantetheinyl transferase (PPTase) | 4'-phosphopantetheinyl transferase ffp (Bacillus subtilis), Q9F4F7 | Biochemical Sfp PPTase activity, qHTS | Potency, µM, inactives show max response, negative = inhibition, hits mostly inhibitors | hit rate 3.5% among 310,000 | AID 1490, 2009; active means well fitted inhibition curve with a large enough effect; inconclusive means small, poorly fitted or top-dose-only effect, or another doubt; inactive means no such curve, though single readings can be large or run the other way;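 further: the enzyme is Sfp with the accession as filed and its product quenches rhodamine fluorescence; potency means the concentration at half of the fitted maximal effect; 0% = enzyme reaction without inhibitor and -100% = no enzyme wells; top concentration of the series not given in the record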
#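 After 15 min at room temperature with compound, 15 nM Sfp received 5 uM rhodamine-CoA plus 12.5 uM BHQ-2-ybbR (50 mM Hepes pH 7.6, 10 mM MgCl2). Rate came from the fluorescence difference over 30 min, ex 525/em 598 nm.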
# gsp ag: qHTS for Agonist of gsp, the Etiologic Mutation Responsible for Fibrous Dysplasia/McCune-Albright Syndrome: qHTS | hit rate 0.13% among 340,000 | gsp mutant cells, cAMP HTRF, 30 min; control for the full effect not named in the record | AID 624287, 2012 | Potency, µM (highest dose often 76.9 µM), for inactives: at the top dose activation (cAMP increase), actives largely listed as activators; active = well fitted activation curve with a large enough effect; inconclusive = small, poorly fitted or top-dose-only effect, or another doubt; inactive = no such curve, though single readings can be large or run the other way; cell line not stated here;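 further: phosphodiesterase inhibitor Ro 20-1724 added with compounds to block cAMP breakdown; potency means the concentration at half of the fitted maximal effect; nearly all actives have a fitted effect of over 60% in size; about a fifth of the inactives were tested at one dose only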
#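 Cells in DMEM/10% FBS with G418 were pretreated with compounds in DMSO plus […] (300 uM stock) for 30 min at 37C. cAMP was measured by HTRF (cAMP-d2 plus anti-cAMP antibody-K) after 30 min at room temperature.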
# Active calls of the source: *; ? = inconclusive; nt = not tested or not shown; [ ] = remark or other dose. Rows are unselected. About 5.3% of those tested had a hit in this group.
# Results follow in this order: gsp antagonist	TRPV1 PAM	Menin-MLL FL inh	ClpP mod	CtBP-E1A inh	Sfp inh	gsp ag
COc1ccc(Cl)cc1N/C(N)=N/c1nc(CSc2ccc(C)cc2)cc(=O)[nH]1
    7%	-2	-1.8	-3.6%	5	-5%	11%
COc1ccc([C@H](OC)[C@@]2(Cc3ccc(O)cc3)N=C(N)N(C)C2=O)cc1
    5%	-4	nt	0.6%	5	nt	nt
O=C(COC(=O)CCNS(=O)(=O)c1cccs1)Nc1ccccc1
    1%	-12	nt	-0.8%	6	nt	-33%
Cn1c(=O)c2sccc2n2c(CCCC(=O)Nc3ccccc3)nnc12
    -11%	24	nt	-6.3%	nt	5%	?
Cc1ccc(C(=O)NN2C(=O)C3C4c5ccccc5C(c5ccccc54)[C@@H]3C2=O)cc1 (some centres not stated)
    -2%	-12	9.2	2.6%	-6	6%	-8%
CC1Cc2ccccc2N1C(=O)c1nn(C)cc1Br (configuration not stated)
    8%	-9	4.5	-1.6%	-4	12%	-8%
C#C[C@]1(O)CC[C@H]2[C@@H]3CCC4=Cc5oncc5C[C@]4(C)[C@H]3CC[C@@]21C
    -12%	nt	0.1	1.8%	2	0%	nt
CCOc1ccc(CCNC(=O)C2CCN(c3nn4c(=O)cc(C)nc4s3)CC2)cc1
    16%	-4	-0.8	-0.3%	-3	8%	16%
COc1cc(/C=N\NC(=O)CNC(=O)c2cccc([N+](=O)[O-])c2)ccc1O
    -7%	-2	3.2	-4.9%	0	11%	?
O=C(Nc1ncc2c(n1)-c1ccccc1CC2)C1CC1
    -1%	3	0.1	nt	0	10%	-5%[15.4 µM]
O=C(Nc1c(F)cccc1F)c1cnc(N2CCN(c3ccccn3)CC2)c2ccccc12
    -15%	0	2.2	?	-2	9%	3%
O=C(Nc1ccc(Cl)cc1)Nc1nnc(SCc2ccccc2)s1
    0%	1	0.2	-0.7%	11	0%	-87%[inhibitor]
CCn1c(SCC(=O)OC)nnc1-c1ccc(C)cc1
    -19%	-3	-1.6	-1.5%	3	3%	-2%
COc1ccc(S(=O)(=O)N(CCN2CCOCC2)Cc2cc(OC)ccc2OC)cc1
    -1%	-6	0.2	-0.3%	-1	-14%	2%
CCN=C1SC(C(=O)Nc2cccc(C)c2)CC(=O)N1CC (configuration not stated)
    0%	-10	2.9	0.5%	4	3%	-27%

# (further entries)
# Results follow in this order: gsp antagonist	TRPV1 PAM	Menin-MLL FL inh	ClpP mod	CtBP-E1A inh	Sfp inh	gsp ag
N#Cc1ccc(Oc2ccc(-c3nc4ccccc4nc3-c3ccccc3)cc2)cc1C#N
    -1%	0	11	?	13	6%	31%
Cc1cc(C(=O)NCCc2ccccc2)c2cc(F)ccc2n1
    7%	-11	0.5	nt	11	14%	-3%[15.4 µM]
CCC1(C)Cc2c(C#N)c(N)sc(=S)c2CO1 (configuration not stated)
    4%	2	?	-4.2%	-23	13µM*	?
N#Cc1cccnc1N1CCN(C(=O)COCC(=O)O)CC1
    9%	-2	2.9	4.5%	nt	14%	14%
Cc1ccccc1-n1c(SCC(=O)O)nc2sc3c(c2c1=O)CCCC3
    -22%	12	0.5	nt	-25	10%	26%
Cc1ccc(C(=O)Nc2cccnc2N2CCN(C)CC2)cc1
    4%	8	-5.6	-1.7%	0	16%	2%
O=C(CN1C(=O)CS/C1=C\c1nc(-c2ccc(Cl)cc2)cs1)Nc1cccnc1Cl
    4%	17	3.4	-2.5%	nt	-4%	-10%
CCCCNC(=O)c1onc(CSc2nc3ccccc3[nH]2)c1C(=O)NCCCC
    -19%	-11	-1.3	1.0%	3	14%	nt
COc1ccc2c(C)cc(=S)[nH]c2c1
    9%	20	-0.8	nt	nt	?	40%[15.4 µM]
COC(=O)c1ccccc1NC(=O)c1ccc2nccnc2c1
    -16%	-4	-0.8	nt	6	1%	10%[15.4 µM]
O=C1CC(C(=O)Nc2ccccc2)C2(CCCC2)O1 (configuration not stated)
    4%	3	1.3	-2.9%	-5	18%	-5%
Cc1cccc(NC(=O)CSCC(=O)Nc2ccccc2N2CCCCC2)c1
    -14%	17	nt	nt	4	nt	28%[15.4 µM]
O=C(/C=C/c1cccs1)c1ccco1
    -5%	nt	nt	nt	3	nt	-30%
COC(=O)c1ccc(Oc2c(C)oc3cc(OCc4cnn(-c5ccccc5)c4)ccc3c2=O)cc1
    14%	-7	-2.6	-4.2%	3	9%	-17%
Cc1ccc(NS(=O)(=O)c2ccc(C)c(NC(=O)COc3ccccc3)c2)c(C)c1
    -19%	-26	4.2	-4.8%	3	-2%	0%

# The final 3 compounds of the part above open the next one.
# Results follow in this order: gsp antagonist	TRPV1 PAM	Menin-MLL FL inh	ClpP mod	CtBP-E1A inh	Sfp inh	gsp ag
O=C(/C=C/c1cccs1)c1ccco1
    -5%	nt	nt	nt	3	nt	-30%
COC(=O)c1ccc(Oc2c(C)oc3cc(OCc4cnn(-c5ccccc5)c4)ccc3c2=O)cc1
    14%	-7	-2.6	-4.2%	3	9%	-17%
Cc1ccc(NS(=O)(=O)c2ccc(C)c(NC(=O)COc3ccccc3)c2)c(C)c1
    -19%	-26	4.2	-4.8%	3	-2%	0%
CCC(=O)NCCc1nc2ccccc2n1CC(=O)c1ccccc1
    -7%	22	1.0	-0.5%	10	?	10%
CCCOc1ccc(/C=C2/C(=O)ON=C2C)cc1OCC
    -12%	-2	0.3	2.9%	10	?	?
C=CCOc1c(Br)cc(/C=C2/C(=O)ON=C2C)cc1OC
    -2%	23	-20	nt	0	?	?
CCOc1ccc(NC(=O)C2CC(=O)N(C(C)C)C2)cc1 (configuration not stated)
    3%	4	6.7	-1.7%	9	8%	-17%
N/C(=N\OC(=O)CC1CCCCC1)c1ccc([N+](=O)[O-])cc1
    9%	-9	-1.4	-3.5%	-14	-23%	16%
COc1ccc(CN2CCNC(=O)C2CC(=O)N2CCCCO2)cc1OC (configuration not stated)
    12%	-8	-8.9	-0.7%	4	2%	-47%[inhibitor]
CCCn1c(N)c(N(CCOC)C(=O)c2ccc(F)cc2)c(=O)[nH]c1=O
    13%	4	-7.2	nt	1	-6%	12%[15.4 µM]
CC(C)[C@H](NC(=O)NCCc1ccc(F)cc1)C(=O)O
    6%	nt	1.4	-2.0%	2	25%	6%
COc1ccc(C(=O)NC2CC(C)(C)Cc3occc32)cc1 (configuration not stated)
    9%	-17	-1.2	-2.3%	-3	-10%	10%
Cc1ccccc1CN1CCN(CC(=O)NCc2ccccc2)CC1
    7%	-10	5.2	-1.0%	-1	18%	-1%[15.4 µM]
COCCN(C(=O)COC(=O)c1ccc2ccccc2c1)c1c(N)n(Cc2ccccc2)c(=O)[nH]c1=O
    nt	nt	nt	-23%	-1	nt	-68%[inhibitor]
COC(=O)c1ncn(C2OC(COC(C)=O)C(OC(C)=O)C2OC(C)=O)n1 (configuration not stated)
    -1%	16	1.5	-2.6%	nt	26%	-16%
Cc1ccc(NC(=O)/C(C#N)=N/Nc2ccc(C(=O)O)cc2)c(C)c1
    -10%	24	-4.1	nt	6	0%	-5%[15.4 µM]
CN(C)NC(=O)C(NC(=O)c1ccc(N)cc1)C12CC3CC(CC(C3)C1)C2 (configuration not stated)
    35%[activator]	-5	-4.2	-2.4%	nt	12%	?
COc1cccc(N2CCN(S(=O)(=O)c3cc4c(cc3Cl)NC(=O)CO4)CC2)c1
    7%	8	2.2	-0.1%	4	11%	24%

# Following part
# Results follow in this order: gsp antagonist	TRPV1 PAM	Menin-MLL FL inh	ClpP mod	CtBP-E1A inh	Sfp inh	gsp ag
CCOC(=O)C1(Cc2cccc(Cl)c2)CCCN(C(=O)CCSC)C1 (configuration not stated)
    0%	-20	-3.4	2.0%	nt	-2%	-4%
CCN(CC(=O)Nc1ccc(NC(C)=O)cc1)CC(=O)Nc1cccc2ccccc12
    nt	nt	nt	-1.9%	0	nt	-97%[inhibitor]
CCOc1ccccc1C1CC(=O)NC(SCC)=C1C#N (configuration not stated)
    5%	-13	0.1	0.9%	3	-1%	4%
CC1=C(C(N)=O)C(c2ccccc2)n2nc(-c3cccc(C)c3)nc2N1 (configuration not stated)
    3%	-14	1.1	-3.1%	5	5%	-5%
Cc1ccc(C2C(C(=O)O)c3ccccc3C(=O)N2C)c(C)c1 (configuration not stated)
    -8%	-2	6.3	0.7%	6	2%	4%
CCSc1nc(=O)n(-c2ccccc2)c(C)c1C(C)=S
    6%	-4	-1.4	2.3%	-2	17%	10%
O=C1C(Cc2ccc(O)cc2)NC(=S)N1Cc1ccccc1 (configuration not stated)
    15%	1	0.2	-0.1%	1	12%	-1%
O=C(N/N=C/c1ccc(O)c(O)c1)c1ccc(CSc2cccc3cccnc23)cc1
    -7%	-2	-0.9	-19%	-3	-11%	-56%[inhibitor]
CSc1nnc(Cn2c(=O)sc3ccccc32)n1-c1ccccc1
    -9%	nt	1.0	2.5%	-3	-8%	25%
CN(CC(=O)Nc1ccc(F)cc1)c1ccc(S(=O)(=O)N2CCCC2)cn1
    -12%	1	-2.2	0.8%	6	23%	1%[15.4 µM]
CC(C)(C)C1CCC(OCC(O)CN2CCCC2)CC1 (configuration not stated)
    13%	16	6.4	-1.3%	1	-6%	-7%

# Screening results deposited in PubChem BioAssay by National Center for Advancing Translational Sciences (NCATS).
